# Source: PubChem BioAssay
# KCNQ2 pot: potentiators of rat KCNQ2 potassium channel. 310,000 compounds, 0.54% hits. CHO-K1 KCNQ2, FluxOR thallium flux fluorescence; hits give high values. B-score at 10 µM. Potassium voltage-gated channel subfamily KQT member 2 (Rattus norvegicus), O88943;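 active = fluorescence ratio B-score at least 3 SD of library B-scores, with initial fluorescence B-score within 3 SD, cut at about 5.3 in these data; same plate scores as AID 2156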;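 note: B-score of peak minus minimum over baseline fluorescence ratio after K+ and Tl+ stimulus; positive B-score means potentiation of KCNQ2 with more thallium influx and brighter signal; only the inactives scoring about 0 or higher are listed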
# Target sequence (O88943 whole entry, looked up): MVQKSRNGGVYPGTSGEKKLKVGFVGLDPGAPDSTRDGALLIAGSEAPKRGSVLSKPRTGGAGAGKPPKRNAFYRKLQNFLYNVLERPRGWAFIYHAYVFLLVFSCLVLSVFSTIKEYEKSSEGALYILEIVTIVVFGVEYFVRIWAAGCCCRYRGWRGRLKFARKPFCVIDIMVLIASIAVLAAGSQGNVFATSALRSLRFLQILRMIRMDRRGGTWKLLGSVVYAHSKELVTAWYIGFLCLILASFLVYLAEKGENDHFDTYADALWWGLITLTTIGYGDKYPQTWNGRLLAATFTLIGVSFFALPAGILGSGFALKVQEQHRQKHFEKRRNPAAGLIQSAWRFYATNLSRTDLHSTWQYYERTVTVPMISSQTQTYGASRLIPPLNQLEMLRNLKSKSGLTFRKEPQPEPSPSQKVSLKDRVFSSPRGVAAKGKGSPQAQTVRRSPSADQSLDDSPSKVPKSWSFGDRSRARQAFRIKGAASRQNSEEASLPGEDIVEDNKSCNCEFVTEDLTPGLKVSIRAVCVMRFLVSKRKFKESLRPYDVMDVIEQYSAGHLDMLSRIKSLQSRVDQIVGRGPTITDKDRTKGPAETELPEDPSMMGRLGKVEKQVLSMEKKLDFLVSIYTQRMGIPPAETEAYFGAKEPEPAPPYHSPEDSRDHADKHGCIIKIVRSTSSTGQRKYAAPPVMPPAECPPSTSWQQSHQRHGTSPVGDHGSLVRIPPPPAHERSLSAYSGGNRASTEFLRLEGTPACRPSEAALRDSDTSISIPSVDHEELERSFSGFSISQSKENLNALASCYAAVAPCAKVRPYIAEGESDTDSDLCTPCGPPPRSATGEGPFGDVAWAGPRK
# KCNQ2 pot baseline: recorded beside KCNQ2 pot, whose call it bears; B-score; compound at 10 µM; measured here: initial fluorescence intensity artifact check;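 brightness before thallium and not channel activity; 0 = typical well and far values either way flag optical interference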
# * = called active by the depositor. This is a subset (hit frequency here may not be typical).
SMILES,KCNQ2 pot,KCNQ2 pot baseline
CS(=O)(=O)N(CC(=O)N1CCOCC1)Cc1ccc(Cl)cc1,0.04,-1.8
Cc1cc(C)cc(OCCNC(=O)C2CCN(S(=O)(=O)c3ccccc3)CC2)c1,0.94,0.65
COc1ccc(-n2ncc3c(N(C)C4CCCCC4)ncnc32)cc1,0.57,0.97
CN1CCN(S(=O)(=O)c2cc(Cl)c(Cl)cc2Cl)CC1,1.7,0.12
COc1ccccc1OC(C)c1nnc(SCC(=O)Nc2c(C)n(C)n(-c3ccccc3)c2=O)n1-c1ccccc1 (centres undefined),1.1,0.09
Cc1ccc(-c2c(C(=O)O)c(C(=O)O)c3n2CCC3)cc1,0.03,1.4
CNC(=O)CS(=O)(=O)CC(=O)Nc1cc(OC(C)C)c(Cl)cc1Cl,0.67,-1.2
CC(C)(C)c1ccc(NC(=O)Cn2cnc3cc([N+](=O)[O-])ccc3c2=O)cc1,0.02,0.5
COc1ccc(NC(=O)N/C=C/c2ccco2)cc1,0.31,1.1
CCN(CC)S(=O)(=O)c1cccc(NC(=O)CSc2nc3ccccc3[nH]2)c1,0.87,-1.1
CCN(CC)c1ccc(S(=O)(=O)N2CCOCC2)cc1NC(=O)COC(=O)c1cccnc1SC,0.43,-2
COc1cc(NC(=O)c2cc(-c3ccco3)on2)cc(OC)c1OC,1.3,-1.5
Cn1nccc1C(=O)N1CCCC(C(=O)c2ccc(C(F)(F)F)cc2)C1 (centres undefined),0.45,1.4
CCN1CCN(c2ccc(S(=O)(=O)N3CCOCC3)cc2NC(=O)c2ccccc2OC(F)F)CC1,0.61,-0.37
Cc1c(C(=O)Nc2ccc(S(=O)(=O)Nc3ncccn3)cc2)oc2ccc(Cl)cc12,1.2,-0.46
Nc1ccc2nn(-c3cc([N+](=O)[O-])ccc3O)nc2c1,0.8,0.54
CC(=O)c1cccc(NC(=O)N2CC(C)OC(C)C2)c1 (centres undefined),0.94,0.23
O=C(CSc1nnc(-c2cccnc2)o1)Nc1ccccn1,1.1,-0.01
CN(C)CCCN(Cc1ccc2c(c1)OCO2)C(=O)NC1CCCCC1,0.45,-1
NC(=O)NOCc1c(F)cccc1Cl,1,0.64
Cc1cccc(CCNC(=O)CCc2nc(-c3ccccc3F)no2)c1,0.16,-0.16
Cc1ccc(Nc2nc(Cl)nc(NC3CCCCC3)n2)cc1,0.22,0.48
Cc1noc(NS(=O)(=O)c2ccc(NC(=O)Nc3ccc(Cl)c(Cl)c3)cc2)c1C,0.56,-0.91
COc1cccc(-c2noc(N)c2C#N)c1,0.45,0.14
COc1ccccc1NC(=O)c1c(N=Cc2cccc([N+](=O)[O-])c2)cnn1C,0.02,-0.19
CCOc1ccc(C(O)c2nccn2C)cc1 (centres undefined),0.24,0.98
COc1cc(O)c(C(C)=O)c(CC(=O)O)c1,0.61,1.1
CCOc1ccc(NC(=O)NCc2ccccn2)cc1,1.6,-0.59
Cc1csc(NC(=O)c2cnccn2)n1,0.68,0.79
COc1ccc(CC(=O)NC(C)c2nnc(SCC(=O)c3ccc(Br)cc3)n2C)cc1 (centres undefined),0.91,1.4
O=C(O)c1ccc(COc2ccccc2/C=C2\NC(=O)N(Cc3ccccc3F)C2=O)cc1,0.68,-1.4
O=C(COC(=O)CNC(=O)C12CC3CC(CC(C3)C1)C2)NC1CCS(=O)(=O)C1 (centres undefined),0.94,-3.5
CCC(=O)CCC(=O)c1ccc2ccccc2c1,2.3,0.41
N#Cc1c(SCC(=O)O)nc(-c2ccccc2)c2c1CCCC2,0.27,-0.5
COc1ccccc1CNC(=O)Cn1cnc2ccccc2c1=O,1.4,0.24
O=C(COC(=O)CCc1ccc(S(=O)(=O)N2CCOCC2)cc1)NCc1ccccc1Cl,0.28,-0.62
COCCNC(=O)C1CCN(C(=O)C2CC(=O)N(c3ccc(C)cc3)C2)CC1 (centres undefined),1.8,-0.57
COc1ccc(C(CNC(=O)CSc2ccc(Br)cc2)N2CCOCC2)cc1 (centres undefined),1.4,-2.7
CCOC(=O)c1cccc(NC(=O)N2CCOCC2)c1,0.92,0
Cc1cccc(N2CCN(C(=O)c3ccc(N4CCCC4=O)cc3)CC2C)c1 (centres undefined),2.3,0.01
O=C(CSc1nc(O)c(Cc2ccccc2)c(=O)[nH]1)Nc1ccccc1,0.75,0.03
O=C(CNC(=O)c1ccccc1F)NCCc1ccc(Cl)cc1Cl,0.93,-1.2
O=C(NC(=S)NCC1CCCO1)c1ccco1 (centres undefined),1.3,0.6
C=CCOc1ccc2ccccc2c1CNn1c(C)n[nH]c1=S,0.8,-2
O=C(O)c1ccccc1Nc1ccnc(Cl)n1,0.71,0.34
Cc1cc2c(c(SCC(=O)NCc3ccc(Cl)cc3)n1)C(=O)OC2,0.86,1.2
CCN(c1ccccc1)S(=O)(=O)c1ccc(NC(=S)NC(=O)c2ccc(Br)o2)cc1,4.4,-0.65
CC(NC(=O)CSc1n[nH]c(=O)[nH]c1=O)C1CC2CCC1C2 (centres undefined),0.02,-1.2
COC(=O)c1ccccc1NC(=O)COC(C)=O,1.2,-0.01
CCOC(=O)CN1NC2(CCC(C(C)(C)C)CC2)NC1=S (centres undefined),0.39,-1.7
O/N=C1\CC/C(=N\O)c2nn(-c3ccc(Cl)cc3Cl)nc21,1.8,-0.88
Cc1cccc(C)c1NC(=O)CN(C)C(=O)Cc1cccc(C(F)(F)F)c1,1.4,-0.14
CCN1CCN(c2ncnc3sc(C(=O)Nc4ccccc4F)c(C)c23)CC1,1.5,-1
COc1cc(OC)cc(C(=O)NCc2ccc(-n3cccc3)cc2)c1,0.05,-0.68
COc1ccc(NC(=O)CSc2nnc(NC(=O)C3CCC3)s2)c(OC)c1,1.2,-0.02
Cc1nn(C)c(C)c1NC(=O)CCCSc1nc(-c2ccco2)cc(C(F)(F)F)n1,0.15,2.6
c1ccc(-n2ncc3c(NCCN4CCOCC4)ncnc32)cc1,0.81,-0.09
COc1ccccc1C1C=C(c2ccc(C)cc2)Nc2nnnn21 (centres undefined),0.59,-0.65
CCn1c(SCC(=O)c2c[nH]c3ccccc23)nc2cc(S(=O)(=O)N3CCOCC3)ccc21,0.18,-0.14
Cc1ccc(S(=O)(=O)N2CCSC2c2ccco2)cc1 (centres undefined),0.83,-2.4
# Other records:
SMILES,KCNQ2 pot,KCNQ2 pot baseline
Oc1ccccc1C(=S)N1CCN(C(=S)c2ccccc2O)CC1,1.1,-1.3
N/C(=N/O)c1nc(N2CCCCC2)nc(N2CCCCC2)n1,0.27,-0.33
COc1ccc(/C=N/NC(=O)c2c(C)nc3ccc(Br)cn23)cc1OC,1.8,-0.34
Cc1ccc(C)c(S(=O)(=O)NC2CCS(=O)(=O)C2)c1 (centres undefined),1.1,-0.69
CCOC(=O)c1c(NC(=O)CSc2ncccn2)sc(C(=O)NC)c1C,2.7,-2
N#Cc1ccc(NC(=S)NCCN2CCOCC2)cc1,0.74,-0.47
O=C(Cn1cnc2cc([N+](=O)[O-])ccc2c1=O)Nc1ccccc1-c1ccccc1,0.03,1
COCCSc1ccccc1C(=O)Nc1ccc(S(=O)(=O)N2CCOCC2)cc1,0.01,-0.16
N#C/C(=C\c1ccc(-c2cccc([N+](=O)[O-])c2)o1)C(=O)Nc1nc(-c2cccs2)cs1,6.8*,-0.45*
COc1ccc(C(=O)NCCS(=O)(=O)NC(C)c2ccccc2)cc1 (centres undefined),2.1,2.5
CCOc1ccc(OCCn2nnc3ccccc3c2=O)cc1,0.99,0.05
CCc1nc(SCC(=O)Nc2ccc(N(C)C)cc2)n[nH]1,0.55,1.6
C(=N\Nc1nccc(-c2cccnc2)n1)/c1ccccc1,0.58,1.5
COc1ccc2[nH]c(=O)c(CN(C(=O)c3ccco3)C3CCCCC3)cc2c1,1,-0.43
CCCCCCCCn1c2c(c(=N)c3c1CCC3)CCCC2,1.9,2.7
CCn1cc([N+](=O)[O-])c(C(=O)N2N=C(c3cccc4ccccc34)CC2c2ccccc2O)n1 (centres undefined),0.76,-0.73
COCCCNC(=O)Nc1ccc2c(c1)N(C)C(=O)CS2,3.3,0.91
CC(C)NC(=O)c1ccc(Cl)cc1Cl,0.09,0.03
FC(F)(F)c1cc(-c2cccs2)nc2cc(-c3ccccc3)nn12,0.08,-0.58
Cc1nnc(NC(=O)CSc2nnc(CC(=O)Nc3ccccc3Cl)n2C)s1,0.01,0.01

# Part of the list above, set out differently.
Molecule: COCCSc1ccccc1C(=O)Nc1ccc(S(=O)(=O)N2CCOCC2)cc1
  KCNQ2 pot: 0.01 | KCNQ2 pot baseline: -0.16
Molecule: N#C/C(=C\c1ccc(-c2cccc([N+](=O)[O-])c2)o1)C(=O)Nc1nc(-c2cccs2)cs1
  KCNQ2 pot: 6.8* | KCNQ2 pot baseline: -0.45*
Molecule: COc1ccc(C(=O)NCCS(=O)(=O)NC(C)c2ccccc2)cc1 (centres undefined)
  KCNQ2 pot: 2.1 | KCNQ2 pot baseline: 2.5
Molecule: CCOc1ccc(OCCn2nnc3ccccc3c2=O)cc1
  KCNQ2 pot: 0.99 | KCNQ2 pot baseline: 0.05

# New compounds follow
SMILES,KCNQ2 pot,KCNQ2 pot baseline
Cc1ccc2nc(-c3ccncc3)cc(C(=O)Nc3ccc4c(c3)OCCO4)c2c1,0.01,0.13
NC(=O)c1ccccc1NC(=O)C1CCCO1 (centres undefined),0.01,-0.06
COc1ccc(C(=O)C[n+]2cccc(Br)c2)cc1,0.09,0.05
CCCCc1ccc(/C=C2\C(=O)c3ccccc3C(O)=C2C(=O)OCC)cc1,5,5.6
COc1cccc(NC(=O)CSc2nnc3c(n2)[nH]c2ccc(C)cc23)c1,0.57,2
CCOC(=O)CN1C(=O)N[C@@H](CCc2ccccc2)[C@H](C(=O)OC)[C@H]1C,0.38,-0.55
CSc1nc(C)cc(C)c1C#N,0.55,0.13
CC(=O)Nc1ccc2c(c1)nc1n2CCN(C(C)c2ccccc2)C1 (centres undefined),0.77,0.62
O=C(Nc1cccc(-c2nc3cccnc3s2)c1)c1ccco1,2.7,-1.2
CCOC(=O)Cc1csc(NC(=O)CC(C)(C)CC(=O)O)n1,2.4,-0.01
COc1ccc(CCN(C)C2CCCN(C(=O)CCC(F)(F)F)C2)cc1OC (centres undefined),0.96,-2.1
Cc1ccccc1-n1c(N)c(C(=O)Nc2ccc(F)cc2)sc1=S,0.04,-0.61
CCCNC(=O)c1n[nH]c(=O)c2ccccc12,0.08,-0.03
Cn1c(CCNC(=O)c2cccs2)nnc1SCC(=O)Nc1nc(-c2ccccc2)cs1,0.1,-1.5
CCn1nnnc1SCC(=O)Nc1nnc(C(C)C)s1,1.6,2.1
CCN(CC(=O)Nc1ccc(NC(C)=O)cc1)C(=O)/C=C/c1cn(-c2ccccc2)nc1-c1cccs1,0.14,-1.1
Cc1nn(Cc2ccccc2)c2c1C(c1cccnc1)C(C#N)=C(N)O2 (centres undefined),0.02,-0.19
CCOC(=O)CSc1nnc(CNC(=O)c2ccc(S(=O)(=O)N3CCCC3)cc2)n1C,0.11,0.69
CC(=O)c1ccc(S(=O)(=O)N2CCN(C(=O)CSc3ccc(F)cc3)CC2)cc1,0.78,-0.58
COc1cccc(-c2cc(-c3cccnc3)c(C#N)c(N)n2)c1,0.68,-0.64

# 7 entries from above, reformatted:
# Every second line gives: KCNQ2 pot	KCNQ2 pot baseline
- CCn1nnnc1SCC(=O)Nc1nnc(C(C)C)s1
 : 1.6	2.1
- CCOC(=O)CN1C(=O)N[C@@H](CCc2ccccc2)[C@H](C(=O)OC)[C@H]1C
 : 0.38	-0.55
- COc1ccc(C(=O)C[n+]2cccc(Br)c2)cc1
 : 0.09	0.05
- NC(=O)c1ccccc1NC(=O)C1CCCO1 (centres undefined)
 : 0.01	-0.06
- Cn1c(CCNC(=O)c2cccs2)nnc1SCC(=O)Nc1nc(-c2ccccc2)cs1
 : 0.1	-1.5
- CSc1nc(C)cc(C)c1C#N
 : 0.55	0.13
- COc1cccc(-c2cc(-c3cccnc3)c(C#N)c(N)n2)c1
 : 0.68	-0.64

# Other results:
SMILES,KCNQ2 pot,KCNQ2 pot baseline
O=C(O/N=C1/CCCc2occc21)c1ccccc1,0.57,0.33
CC1(C)C2C(Cl)(Cl)C2(C)c2ccccc2N1C=O (centres undefined),2.5,1.1
NS(=O)(=O)c1cccc(NC(=O)Nc2ccccc2)c1,0.44,0.03
CCC1Nc2ccccc2-c2nnc(SC)nc2O1 (centres undefined),0.13,0.25
CC(/C=N/NC(=O)c1ccc2nc(C)[nH]c2c1)=C\c1ccccc1,1,-1.3
CC(C)(C)c1ccc(C(=O)NNc2ccc(F)cc2F)cc1,0.78,-0.9
Cc1c(NC(=S)N/C(=N/S(=O)(=O)c2ccccc2)c2ccccc2)c(=O)n(-c2ccccc2)n1C,1.8,0.59
CS(=O)(=O)N1CCCC(C(=O)NCc2ccc(F)cc2)C1 (centres undefined),0.34,1.2
O=C(CSc1ccc(-c2cccs2)nn1)NCCc1ccccc1,1.2,-2.4
O=C(O)c1ccc(OCC(O)Cn2cnc3ccccc32)cc1 (centres undefined),1.1,-0.03
CC(=O)Nc1c(-c2ccc(F)cc2)nc2ccccn12,1.9,0.08
CSc1ccc(CN2CCC(CO)(CCOc3ccccc3)CC2)cc1,0.62,-0.02
COc1ccc(CCC(=O)Nc2nc(-c3ccncc3)cs2)cc1,1.2,0.08
CC(C)OCCCNC(=O)C1CCN(S(=O)(=O)N2CCCC2)CC1,0.17,-0.08
CSc1nnc2c(n1)OC(c1ccsc1)N(C(C)=O)c1ccccc1-2 (centres undefined),0.38,2.2
CC(C)CN(C(=O)COC(=O)c1nc(Cl)ccc1Cl)C1CCS(=O)(=O)C1 (centres undefined),0.89,0.02
COc1cc(/C=C2\SC(=S)N(NC(=O)c3ccc(O)c(OC)c3)C2=O)ccc1O,0.8,1.6
COc1ccc(C(=O)Nc2ccncc2)c(OC)c1,0.17,1.6
CCc1ccccc1NC(=O)Nc1cc(F)ccc1F,0.51,-0.01
